Screening data: PubChem, several laboratories
MLL AF4-AF9 inh: blocks AF4 peptide binding to human AF9. 350,000 tested, 0.47% active. AlphaScreen, biotin-AF4 peptide binding to FLAG-AF9. P42568. inhibition, % at 10 µM;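 active means every replicate reaching a set inhibition limit, whatever the replicate mean, cut at about 25% in these data; inconclusive means mean inhibition reaches that limit but some replicates miss it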;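 further: 0% = plate neutral control median and 100% = total signal loss; the record names both 10 and 1 µM as test concentration; the first replicate is given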
Vif A3G: inhibitors of Vif binding to APOBEC3G peptide, primary screen, biochemical, TR-FRET, GST-Vif 1-94, biotin-A3G peptide, dose response retest (AID 1117319). TR-FRET GST-Vif / biotin-A3G peptide binding; higher % means a stronger effect; test concentration not given here; strong numbers were not always called active. inhibition, %; hits with a dose series show IC50 in µM. 260,000 tested, 0.57% active;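 active means above the screen mean plus three standard deviations and confirmed in dose response; inconclusive means results disagree or hit not tested in dose response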;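 further: Vif residues 1-94 fused to GST binding biotinylated APOBEC3G peptide 110-148; 0% = full assay without inhibitor and 100% = GST in place of GST-Vif; retest series ran down from 100 µM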
ALR H2O2 inh: human ALR oxidase inhibition via reduced H2O2 | purified ALR, DTT oxidation, H2O2 HRP-luminol luminescence | 290,000 tested, 3.8% active | inhibition, % (test concentration not listed);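 active means mean and each replicate at 75% or more; inconclusive means only one of the two met; inactive means neither met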;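 further: stock transfer was 7.5 nL into about 7.5 µL; 0% = neutral wells and 100% = wells with inactivated enzyme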
Target sequence (P55789 whole entry, looked up): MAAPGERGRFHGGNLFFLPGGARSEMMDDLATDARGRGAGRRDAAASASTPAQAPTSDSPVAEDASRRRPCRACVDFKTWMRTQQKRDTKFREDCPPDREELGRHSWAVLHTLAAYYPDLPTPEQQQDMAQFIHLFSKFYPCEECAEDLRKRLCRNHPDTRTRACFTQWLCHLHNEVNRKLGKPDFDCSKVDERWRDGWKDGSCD
HNF4A DNA FP: change in binding of human HNF4 alpha to DNA. HNF4a-FITC DNA binding, fluorescence polarization, 1 h. activity change, % at 10 µM. 360,000 tested, 0.3% active. P41235; in the data active means activity change above about 30%, passing the limit was not always enough;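 further: controls were the assay level and a saturating level of protein; the project sought stronger binding though the title names inhibitors; some compounds called inactive have numbers as strong as hits; positive values seem to mean higher polarization but the record does not say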
Target sequence (P41235 whole entry, looked up): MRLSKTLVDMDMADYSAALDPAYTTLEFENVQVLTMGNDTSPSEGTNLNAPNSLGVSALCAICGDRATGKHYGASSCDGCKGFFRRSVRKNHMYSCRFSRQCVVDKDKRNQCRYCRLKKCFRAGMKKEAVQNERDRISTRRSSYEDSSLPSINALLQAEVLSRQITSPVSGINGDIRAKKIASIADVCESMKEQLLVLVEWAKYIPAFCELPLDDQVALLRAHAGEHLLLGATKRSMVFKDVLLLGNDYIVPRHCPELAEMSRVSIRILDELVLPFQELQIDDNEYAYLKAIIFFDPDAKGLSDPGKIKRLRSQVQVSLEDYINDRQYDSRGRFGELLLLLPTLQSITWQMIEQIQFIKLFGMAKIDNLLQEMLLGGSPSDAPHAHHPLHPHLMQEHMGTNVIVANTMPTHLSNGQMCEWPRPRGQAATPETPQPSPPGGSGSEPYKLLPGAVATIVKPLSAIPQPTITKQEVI
E coli growth: E. coli growth inhibition; OD600 absorbance (test concentration not listed); 330,000 tested, 0.21% active; Escherichia coli growth, OD600, 23 h; active compounds read low;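 active means OD600 absorbance below the run mean of sample wells minus 3.6 SD, in any replicate, cut at about 0.56 in these data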;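 further: stock transfer was 300 nL into about 60 µL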
Ecoli rRNA inh: selective bacterial rRNA inhibition in E. coli | GFP signal change (wild-type ribosome), % (concentration not given with the values) | E. coli WT GFP vs humanized-ribosome RFP mutants, fluorescence, 24 h; active compounds read low; DMSO median 0, no signal -100 | 350,000 tested, 1.6% active;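 active means significant combined selectivity score with lowered wild-type GFP, culture density cut under 30%, mutant RFP and density less affected; inactive means any of these conditions unmet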; further: one replicate is shown; some compounds called inactive have numbers as strong as hits
FGF22 binding: shifts melting point of recombinant human FGF22; Q9HCT0; recombinant FGF22 thermal shift, SYPRO orange fluorescence; percent of sucrose octasulfate shift, DMSO zero; calls only at 9.99 µM; 340,000 tested, 1.5% active;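 active means melting point raised past a set limit in the mean and every replicate; inconclusive means no clear call; three in four hits are not shown here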
Target sequence (Q9HCT0 whole entry, looked up): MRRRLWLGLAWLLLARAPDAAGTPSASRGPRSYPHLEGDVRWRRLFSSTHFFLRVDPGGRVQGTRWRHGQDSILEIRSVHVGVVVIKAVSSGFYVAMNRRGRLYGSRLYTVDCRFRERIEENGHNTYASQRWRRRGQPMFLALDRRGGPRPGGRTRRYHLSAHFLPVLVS
Ecoli rRNA inh OD600: second read-out of Ecoli rRNA inh, no call of its own (marks repeat the call); OD600 change, %; measured here: OD600 growth;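 optical density of the mix in the first replicate; 0 = DMSO median and -100 = no signal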
Ecoli rRNA inh RFP: also measured in Ecoli rRNA inh; calls as there; RFP signal change, %; measured here: RFP humanized mutant strains;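 first replicate; 0 = DMSO median and -100 = no signal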
The depositor's hits bear a star; i = inactive; ? = inconclusive; nt = no result given. An excerpt; rates above refer to the full screens.

SMILES | MLL AF4-AF9 inh | Vif A3G | ALR H2O2 inh | HNF4A DNA FP | E coli growth | Ecoli rRNA inh | Ecoli rRNA inh OD600 | Ecoli rRNA inh RFP | FGF22 binding
COC(=O)c1cccc(CN2C(=O)C(C)Oc3ccc(C)cc32)c1 (stereo not drawn) | -1.6 | nt | nt | 1.3 | nt | -2 | -13 | -4.5 | i
Cc1cc(C)nc(NC(=O)CCC2CCCC2)c1 | nt | -10% | -2 | -0.4 | 0.71 | nt | nt | nt | nt
CCCN1C[C@@H](C)[C@@H](OC)CN(C)C(=O)c2cc(NS(=O)(=O)c3cn(C)cn3)ccc2OC[C@H]1C | -0.5 | nt | nt | nt | nt | 2 | 5 | 1.5 | i
O=C(CCC(=O)N1CCOc2ccccc21)Nc1ccc(F)cc1F | 1.6 | nt | 7 | 1.1 | 0.69 | -3 | -3 | -4.7 | i
Cc1noc(C)c1S(=O)(=O)Nc1ccc2c(c1)C(=O)N([C@H](C)CO)C[C@H](C)[C@@H](CN(C)C(=O)Nc1ccccc1)OCCCC[C@H](C)O2 | 1.6 | nt | nt | nt | nt | -2 | -7 | 1.8 | i
CCN(CC)C(=O)C1CCN(S(=O)(=O)c2ccc3oc4ccccc4c3c2)CC1 | -3.1 | 24% | nt | 1.3 | 0.68 | 22 | 4 | 3.1 | i
C[C@@H]1CN([C@H](C)CO)C(=O)c2cc(NC(=O)c3ccncc3)ccc2O[C@@H](C)CCCCO[C@H]1CN(C)S(=O)(=O)c1cccs1 | -0.3 | nt | nt | nt | nt | -5 | -2 | 1.3 | i
C=CCOC(=O)C1=C(C)NC(SCC)=C(C#N)C1c1ccc(Cl)cc1 (stereo not drawn) | nt | -2% | 5 | -2.3 | 0.67 | nt | nt | nt | nt
Cc1cnn2c(C3CC3)ccnc12 | -1.7 | 6% | -8 | 5.3 | 0.72 | 6 | 2 | -2.9 | i
CCCCN(CCCC)S(=O)(=O)c1ccc(NC(=O)c2ccc([N+](=O)[O-])cc2Cl)cc1 | nt | nt | -8 | -2.1 | 0.71 | nt | nt | nt | nt
C=CCn1c(SCC(=O)N(C)C2CCS(=O)(=O)C2)nnc1-c1ccccc1 (stereo not drawn) | -4.1 | -6% | -1 | -0.8 | 0.64 | 16 | 8 | 3.0 | i
CCOc1ccccc1C(=O)Nc1ccc2nc3n(c(=O)c2c1)CCCCC3 | -14 | nt | 0 | 1.2 | 0.7 | -1 | 0 | 0.5 | i
Cc1ccc(S(=O)(=O)N=Nc2c(O)[nH]c3ccccc23)cc1C | nt | -2% | -4 | -1.8 | 0.73 | nt | nt | nt | nt
COc1ccc(F)cc1S(=O)(=O)Nc1ccc2c(c1)OCCO2 | 0.3 | -1% | nt | -0.3 | 0.71 | 0 | -7 | 0.6 | i
NC(=O)CC1SC(N)=NC1=O (stereo not drawn) | nt | ? | -3 | 0.2 | 0.68 | nt | nt | nt | nt
CCCN1CCN(S(=O)(=O)c2cn(C)nc2C)CC1 | 0.5 | -1% | -3 | -8.3 | 0.73 | 21 | 12 | 2.5 | i
Cc1cccc2nc(CSc3nncn3-c3ccccc3)cn12 | nt | 3% | 1 | 1.0 | 0.71 | nt | nt | nt | nt
CCN1CCN(c2ccc(NC(=O)CC3OC(=O)c4ccccc43)cc2C)CC1 (stereo not drawn) | -4.2 | nt | nt | -3.4 | nt | 5 | 11 | 0.1 | i
CC(=O)N1[C@@H](CO)[C@@H](c2ccccc2)[C@@H]1CN(C(=O)c1cccc(F)c1)C(C)C | 0.1 | nt | nt | nt | nt | 0 | -3 | -1.0 | i
FC(F)Oc1ccccc1NC(=S)Nc1cccnc1 | -2.8 | 66% | 37 | -1.8 | 0.66 | 17 | 8 | 1.3 | nt
C[C@H](CO)N1C[C@H](C)[C@H](CN(C)CC2CC2)OCCCC[C@H](C)Oc2ccc(NS(=O)(=O)c3ccc(Cl)cc3)cc2C1=O | 9.5 | nt | nt | nt | nt | 3 | 5 | 4.9 | i
CCOc1ccc(OCc2cccc(C(=O)Nc3ccc(CN4CCCCC4)cc3)c2)cc1 | nt | -1% | -15 | 2.0 | 0.68 | nt | nt | nt | nt
Cc1nn(C(C)C(=O)NNC(=S)Nc2ccc(Cl)cc2)c(C)c1[N+](=O)[O-] (stereo not drawn) | nt | 10% | 38 | -4.2 | 0.68 | nt | nt | nt | nt
COCCCN(C(=S)Nc1c(C)cc(C)cc1C)C(C)c1ccccn1 (stereo not drawn) | 0.8 | -1% | -6 | -0.2 | 0.69 | 10 | -1 | 9.8 | i
CC(C)NC(=O)Nc1cccc2c1O[C@H](CN(C)C(=O)Nc1ccccc1)[C@H](C)CN([C@@H](C)CO)C2=O | -0.2 | nt | nt | nt | nt | 4 | 0 | -2.2 | i
CCC(=O)NC(=S)N1CCN(c2ccc([N+](=O)[O-])cc2Cl)CC1 | nt | 3% | -4 | -2.6 | 0.73 | nt | nt | nt | nt
Cc1cc(C)c(S(=O)(=O)N2CCCC(C(=O)N3CCCC3)C2)c(C)c1 (stereo not drawn) | -0.1 | nt | -1 | -1.2 | 0.72 | -2 | -9 | 1.3 | i
O=C(Nc1ccc(Br)cc1)Nc1ccccc1F | 0.2 | 29% | 40 | 0.1 | 0.6 | 2 | 4 | -0.3 | i
COc1ccc(CNC(=O)c2cccc(N3CCCC3=O)c2)cc1 | nt | 0% | -9 | 0.3 | 0.69 | nt | nt | nt | nt
COC(=O)CCC(=O)OC1(C)C(=O)C=C2C=C(C3CC3)N(Cc3ccco3)C=C2C1=O (stereo not drawn) | 5.3 | nt | -15 | -7.6 | 0.66 | 14 | 18 | 21 | i
CNc1nc(C)c(C#N)cc1C(C)=O | nt | -2% | 0 | -0.2 | 0.7 | nt | nt | nt | nt
C[C@H](CO)N1C[C@H](C)[C@@H](CN(C)C(=O)Cc2ccncc2)Oc2cc(C#CC3CCCC3)ccc2S1(=O)=O | 4.4 | nt | nt | nt | nt | -4 | -13 | 6.0 | i
Cc1ccc(C)c(-c2nnc(NC(=O)CCS(=O)(=O)c3ccccc3)o2)c1 | 0.5 | -3% | 0 | -3.3 | 0.71 | -6 | -3 | -0.5 | i
CC(=O)N1CC2(CC(c3ccccc3F)=NO2)CN1c1ccc(Cl)cc1 (stereo not drawn) | 2.2 | -5% | nt | -1.5 | nt | -6 | -8 | 0.2 | i
COc1cc(C(=O)NC(=S)N(C)Cc2ccccc2)cc(OC)c1OC | -1.6 | nt | 5 | 0.4 | 0.7 | 13 | 7 | 0.9 | i
CN(C)c1nc(N)nc(/C(C#N)=C/C2CC3C=CC2C3)n1 (stereo not drawn) | nt | ? | 7 | 3.0 | 0.7 | nt | nt | nt | nt
CN(C)S(=O)(=O)Oc1ccc(C(=O)Nc2ccc([N+](=O)[O-])cc2)cc1 | 0.2 | nt | -7 | -1.7 | 0.72 | 9 | 16 | 2.1 | i
COc1ccc(CCNC(=O)C2CCN(S(=O)(=O)N3CCC4(CC3)OCCO4)CC2)cc1OC | nt | 5% | -5 | 1.0 | 0.64 | nt | nt | nt | nt
O=C(c1ccc(C(F)(F)F)cc1)C1CCCN(C(=O)CN2C(=O)CSC2=O)C1 (stereo not drawn) | -3.8 | -9% | -4 | -0.5 | 0.68 | 0 | 2 | -1.1 | i
Clc1ccc(-c2nnc3sc(-c4ccc(Br)o4)nn23)c(Cl)c1 | nt | -15% | -1 | 0.2 | 0.74 | nt | nt | nt | nt
CN(C)N1C(=O)CC(N2CCCCC2)C1=O (stereo not drawn) | 0.2 | -1% | -1 | 1.7 | 0.67 | -31* | -17* | -1.3* | i
CCOc1ccccc1CNC(=O)c1ccc2c(c1)N(CC)CCS2 | -3.7 | nt | 13 | 5.3 | 0.68 | 4 | -28 | -8.4 | i
O=C(NNC(=O)c1cccc(S(=O)(=O)N2CCCCC2)c1)c1ccccc1 | -7.0 | nt | 19 | -1.1 | 0.71 | 10 | 8 | -0.6 | i
O=C(c1ccncc1)N1CCCCN2[C@H](CO)[C@H](c3ccc(C#Cc4ccccn4)cc3)[C@@H]2C1 | -4.1 | nt | nt | nt | nt | 2 | 2 | 0.0 | i
C[C@H]1CN([C@@H](C)CO)C(=O)c2cccc(NC(=O)Nc3ccccc3)c2O[C@H]1CN(C)Cc1ccc(C(F)(F)F)cc1 | 5.0 | nt | nt | nt | nt | -5 | -12 | 3.2 | i
N/C(Cc1cccs1)=N\OC(=O)COc1ccc(Br)cc1Cl | nt | 1% | 0 | -1.3 | 0.73 | nt | nt | nt | nt
CC(=O)NCCC(=O)Nc1cccc(S(=O)(=O)N(C)c2ccccc2)c1 | nt | 4% | -8 | -2.0 | 0.72 | nt | nt | nt | nt
CCOCCCNC(=O)c1cccc(NC(=O)C2=C(C)OCCS2)c1 | -1.6 | 0% | -5 | -0.6 | 0.67 | 0 | -4 | 0.9 | i
COc1cc2c(cc1OC)CN(C(C)C(=O)Nc1cccc(S(=O)(=O)N3CCOCC3)c1)CC2 (stereo not drawn) | 0.8 | 9% | nt | -0.7 | 0.7 | 7 | 6 | 2.1 | i
COc1cc(C(=O)C(=O)N2CCC(Cc3ccccc3)CC2)cc2ccccc12 | -1.7 | nt | nt | 1.7 | nt | 5 | -2 | 4.7 | i
Additional results
SMILES | MLL AF4-AF9 inh | Vif A3G | ALR H2O2 inh | HNF4A DNA FP | E coli growth | Ecoli rRNA inh | Ecoli rRNA inh OD600 | Ecoli rRNA inh RFP | FGF22 binding
COc1cc(OC)cc(C(=O)NCC2CCCO2)c1 (stereo not drawn) | 2.1 | 27% | -4 | -2.6 | 0.7 | nt | nt | nt | i
COc1ccc(OC2CCN(S(=O)(=O)c3ccc(F)cc3)CC2)cc1 | 1.3 | 4% | -4 | -3.8 | 0.64 | 0 | -4 | 0.1 | i
CO[C@@H](CN(C)S(=O)(=O)c1cccc(Cl)c1)[C@H](C)CN(C(=O)Nc1ccccc1F)[C@@H](C)CO | -0.6 | nt | nt | nt | nt | -5 | -16 | -1.8 | i
S=c1[nH]nc(-c2ccncc2)n1Cc1ccccc1 | nt | -4% | ? | 0.4 | 0.7 | nt | nt | nt | nt
Cn1cc(Cl)c(C(=O)OCC(=O)Nc2cccc(Cl)c2)n1 | -1.6 | nt | nt | -1.8 | 0.7 | -6 | -4 | 0.0 | i
Cc1ccc(F)cc1NC(=O)CSCc1c(C)noc1C | 0.3 | -19% | 10 | 1.8 | 0.69 | 15 | 5 | 1.2 | i
CN(CCOc1ccccc1)CC(=O)Nc1ccc(Br)cc1F | -2.6 | nt | 5 | -3.2 | 0.68 | -10 | -15 | -1.9 | i
Nc1ccn(C2OC(COC(=O)C34CC5CC(CC(C5)C3)C4)C(O)C2O)c(=O)n1 (stereo not drawn) | 1.3 | -11% | nt | 1.4 | nt | -14 | -12 | -0.1 | i
COc1ccc(OCC(=O)Nc2ccc3c(c2)nc(CCN2CCC(C)CC2)n3C)cc1 | 9.7 | -5% | -2 | 2.1 | 0.7 | 8 | 2 | -1.4 | i
CC1(C(=O)NCc2cccc3ccccc23)CCN1C(=O)C1(c2ccccc2)CCCC1 (stereo not drawn) | -7.7 | nt | nt | 3.9 | nt | -3 | -10 | 4.0 | i
O=C(Nc1ccc(N2CCOCC2)cc1)c1ccc(Br)o1 | -1.5 | nt | 8 | -1.5 | 0.66 | 1 | 6 | -2.9 | i
